HNF4A DNA FP = change in binding of human HNF4A to DNA, primary screen, biochemical, fluorescence polarization, FITC-DNA. AID 1224865, 2016. actives 0.3% (n = 360,000). activity change, % at 10 µM. 1 h. Hepatocyte nuclear factor 4-alpha (Homo sapiens), P41235; in the data active = activity change above about 30%, passing the limit was not always enough;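 also: controls were the assay level and a saturating level of protein; the project sought stronger binding though the title names inhibitors; some compounds called inactive have numbers as strong as hits; positive values seem to mean higher polarization but the record does not say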
Vif TR-FRET = inhibitors of Vif binding to APOBEC3G peptide, primary screen, biochemical, TR-FRET, GST-Vif 1-94, biotin-A3G peptide, dose response retest (AID 1117319) | one-dose inhibition, %; IC50 in µM for titrated hits | TR-FRET GST-Vif / biotin-A3G peptide binding; higher % means a stronger effect; test concentration not given here; strong numbers were not always called active | actives 0.57% (n = 260,000);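 active = above the screen mean plus three standard deviations and confirmed in dose response; inconclusive = results disagree or hit not tested in dose response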;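 also: Vif residues 1-94 fused to GST binding biotinylated APOBEC3G peptide 110-148; 0% = full assay without inhibitor and 100% = GST in place of GST-Vif; retest series ran down from 100 µM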
ALR inh = inhibitors of human ALR sulfhydryl oxidase, primary screen, biochemical, H2O2 detection, HRP-luminol luminescence, single point; FAD-linked sulfhydryl oxidase ALR (Homo sapiens), P55789; purified ALR, DTT oxidation; inhibition, % (concentration not given with the values); actives 3.8% (n = 290,000);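 active = mean and each replicate at 75% or more; inconclusive = only one of the two met; inactive = neither met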;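 also: stock transfer was 7.5 nL into about 7.5 µL; 0% = neutral wells and 100% = wells with inactivated enzyme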
RanGTP-Impb inh = inhibitors of RanGTP-importin-beta interaction, primary screen, biochemical, FRET, CFP-Ran, YFP-importin-beta, homogeneous; cell-free CFP-Ran/YFP-importin-beta FRET ratio; actives 1.1% (n = 300,000); inhibition, % (test concentration not listed); Ran GTPase (GTP-bound) - importin-beta complex; AID 2216, 2009;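 active = most replicates above 15%; inconclusive = exactly half above 15%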;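 also: 0% = DMSO wells and 100% = Ran loaded with GDP instead of GTP; wells of about 40 µL received 100 nL stock; the first replicate is given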
LANA-H2A inh = blockers of LANA interaction with H2A/H2B – biochemical, FP readout, HTS, primary screen. Protein LANA1 (Human herpesvirus 8 type P (isolate GK18)), Q9QR71. cell-free LANA-H2A/H2B peptide, fluorescence polarization. inhibition, % (concentration not given with the values). actives 0.6% (n = 320,000). AID 2629, 2010; in the data active = inhibition mostly above about 10%, no sharp cut-off; inactive = mostly below about 6.7%;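 also: stock transfer was 7.5 nL into about 10 µL; 0% = median of vehicle wells and 100% = median of positive control wells; one replicate is shown; the record names a cut of 25% in any replicate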
Target sequence (Q9QR71 whole entry, looked up): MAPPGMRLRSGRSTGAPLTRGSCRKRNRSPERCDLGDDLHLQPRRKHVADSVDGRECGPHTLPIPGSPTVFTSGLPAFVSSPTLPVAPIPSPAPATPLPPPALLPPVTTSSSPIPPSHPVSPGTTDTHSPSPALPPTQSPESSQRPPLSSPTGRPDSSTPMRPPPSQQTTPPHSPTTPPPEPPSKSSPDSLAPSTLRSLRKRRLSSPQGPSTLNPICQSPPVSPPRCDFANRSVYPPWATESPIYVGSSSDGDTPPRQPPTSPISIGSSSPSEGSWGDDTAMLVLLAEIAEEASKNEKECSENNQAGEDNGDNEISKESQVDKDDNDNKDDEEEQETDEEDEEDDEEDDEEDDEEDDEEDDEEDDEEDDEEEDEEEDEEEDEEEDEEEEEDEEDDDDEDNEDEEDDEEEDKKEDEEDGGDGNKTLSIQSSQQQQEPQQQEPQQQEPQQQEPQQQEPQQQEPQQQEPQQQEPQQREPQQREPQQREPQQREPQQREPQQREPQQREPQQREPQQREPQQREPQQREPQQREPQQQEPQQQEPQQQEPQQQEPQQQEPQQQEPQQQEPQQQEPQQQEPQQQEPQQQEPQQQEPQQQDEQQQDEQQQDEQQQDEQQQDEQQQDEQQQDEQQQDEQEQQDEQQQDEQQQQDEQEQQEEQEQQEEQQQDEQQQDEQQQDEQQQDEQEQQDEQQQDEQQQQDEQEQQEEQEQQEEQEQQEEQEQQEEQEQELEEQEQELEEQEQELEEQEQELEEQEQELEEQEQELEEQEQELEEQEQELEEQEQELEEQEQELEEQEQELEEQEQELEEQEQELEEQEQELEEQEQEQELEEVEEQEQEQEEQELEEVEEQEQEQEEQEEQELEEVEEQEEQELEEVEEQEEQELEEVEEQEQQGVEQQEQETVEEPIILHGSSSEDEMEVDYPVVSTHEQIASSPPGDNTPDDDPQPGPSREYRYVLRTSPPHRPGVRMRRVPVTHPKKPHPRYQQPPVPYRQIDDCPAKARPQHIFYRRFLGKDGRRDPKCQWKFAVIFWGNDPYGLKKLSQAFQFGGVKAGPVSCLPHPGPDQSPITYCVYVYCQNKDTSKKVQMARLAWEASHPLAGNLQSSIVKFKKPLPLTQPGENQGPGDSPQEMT
Calb FLC = C. albicans growth inhibition with fluconazole, primary screen, CaCi-2 strain, Alamar Blue fluorescence. C. albicans CaCi-2 (fluconazole-resistant clinical isolate) + fluconazole, 48 h. growth inhibition, % (no concentration beside the values). actives 0.57% (n = 300,000). AID 1979, 2009;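 active = most replicates above 75%; inconclusive = exactly half above 75%; inactive = most below 75%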;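 also: all wells also contain fluconazole at 8 µg/ml as a sub-toxic cotreatment; 0% = median of DMSO wells and 100% = median of geldanamycin control wells; wells of about 8 µL received 7.5 nL stock; the first replicate is given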
Beta2AR agonist = beta2AR agonists driving receptor internalization, primary screen, cell-based, FAP fluorogen, flow cytometry; Am2.2-beta2AR cells; reference of the scale not given here; response, % (no concentration beside the values); actives 0.43% (n = 340,000); AID 504454, 2011;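 active = response above a set limit, near 3 SD of response in nonfluorescent compounds, cut at about 42% in these data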;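 also: stock transfer was 100 nL into about 11 µL; a reference agonist was the positive control; negative values mostly stem from fluorescent compounds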
* marks the source's active call; other numbers are inactive results; ? = inconclusive; · = no result given; & = joins results of further samples.

Start of the data: the first 4 compounds as a preview:
SMILES	HNF4A DNA FP	Vif TR-FRET	ALR inh	RanGTP-Impb inh	LANA-H2A inh	Calb FLC	Beta2AR agonist
Cc1cc(C)c(NC(=O)CSc2nnc(Cc3cccn3C)n2-c2ccc(F)cc2)c(C)c1	3.6	-5%&-6%	2	-0.6	-2.1	0	-4
CCCOc1ccc(-c2cc3onc(-c4ccccc4)c3c(=O)n2C)cc1	1.2	·	0	·	3.4	·	-8
CCOC(=O)c1sc(NC(=O)CN2C(=O)c3cccc4cccc(c34)C2=O)nc1C	1.2	-5%	1	4.4	-1.1	-13	16
Cc1ccc(C(=O)N/C(=C\c2cccs2)C(=O)N2CCN(C)CC2)cc1C	2.5	-5%	-4	1.1	-5.7	2	2

All compounds of this part, previewed entries included:
SMILES	HNF4A DNA FP	Vif TR-FRET	ALR inh	RanGTP-Impb inh	LANA-H2A inh	Calb FLC	Beta2AR agonist
Cc1cc(C)c(NC(=O)CSc2nnc(Cc3cccn3C)n2-c2ccc(F)cc2)c(C)c1	3.6	-5%&-6%	2	-0.6	-2.1	0	-4
CCCOc1ccc(-c2cc3onc(-c4ccccc4)c3c(=O)n2C)cc1	1.2	·	0	·	3.4	·	-8
CCOC(=O)c1sc(NC(=O)CN2C(=O)c3cccc4cccc(c34)C2=O)nc1C	1.2	-5%	1	4.4	-1.1	-13	16
Cc1ccc(C(=O)N/C(=C\c2cccs2)C(=O)N2CCN(C)CC2)cc1C	2.5	-5%	-4	1.1	-5.7	2	2
Cc1cccc(NC(=S)N2CCN(C(=O)C3CCCO3)CC2)c1 (stereo not given)	-1.7	-4%	0	0.0	0.1	-3	8
CC(NC(=O)c1ccc(Cl)cc1Cl)C(c1ccccc1)N1CCOCC1 (stereo not given)	-1.2	1%	-6	-5.6	-8.1	13	3
Cc1cc(C)nc(OC(C(=O)O)C(OCc2ccccc2)(c2ccccc2)c2ccccc2)n1 (stereo not given)	3.8	·	3	6.2	1.3	-4	7
COC(=O)c1cc(CSc2nc3ccc(C)cc3[nH]2)oc1C	-0.9	·	34	-3.1	8.2	11	-9
CC1Cc2ccccc2N1C(=O)CN1C(=O)C(=O)N(Cc2ccccc2)C1=O (stereo not given)	-1.4	-4%	·	3.3	7.2	-4	-3
Cc1cc(C)c(S(=O)(=O)N2CCN(C(=O)CCOc3ccccc3C)CC2)c(C)c1	2.2	-2%	·	·	-1.6	·	-6
COc1ccccc1C(=O)Nc1ccc(S(=O)(=O)N2CCN(C)CC2)cc1	-1.1	·	-4	4.6	4.2	1	-6
CCC1(CC)C(=O)C2=C3C1[C@H](C(=O)OC)CC(C(=O)OC)C[C@H]3[C@H]1C(=O)N(c3ccccc3)C(=O)[C@H]1[C@H]2C (stereo not given in full)	27	·	-15	-1.6	-1.8	-7	-10
CSc1ccccc1NC(=O)Cc1ccccc1[N+](=O)[O-]	1.8	12%	5	-0.9	2.6	-3	0
FC(F)(F)c1cccc(OCc2nnc3n2CCC3)c1	0.7	19%	-6	2.9	-5.4	15	-2
C/C(=N\O)C(=O)C(CN1CCCCC1)CN1CCCCC1	8.7	?	42	1.4	-11	19	6
COc1ccc(-c2nn(-c3ccccc3C)cc2CNC(C)Cn2cncn2)cc1F (stereo not given)	-1.4	·	0	-0.4	1.1	10	-9
CC(=O)Nc1ccc(S(=O)(=O)N[C@@H](C)C(=O)NC2CCCc3ccccc32)cc1 (stereo not given in full)	3.4	·	-14	·	-0.4	·	2
COc1ccc2cc(C(=O)NCc3ccccc3)[nH]c2c1	-0.8	-4%	8	-0.7	3.6	0	2
CC1(C)C(c2ccccc2)=NC(c2ccc(Br)cc2)N1O (stereo not given)	-5.1	0%	-12	-6.1	-0.1	-18	6
CCCSc1nc(C)c(CC(=O)OCC)c(=O)[nH]1	1.0	-5%	2	2.0	7.5	4	17
CC(C)C(=O)Nc1ccc(-c2nnc(-c3ccccc3)o2)cc1	-0.8	8%	-6	3.9	1.3	2	-6
Cc1cc(NC(=O)Nc2c[nH]c(=O)[nH]c2=O)ccc1Br	-2.0	-6%	-12	2.2	-3.1	2	0
CCCCCCCCC(=O)N/N=C(\C)c1ccc(O)cc1O	-1.3	?	-1	0.9	1.4	-2	11
O=C(NC1CCCC1)C1(c2ccccc2)CCN(S(=O)(=O)c2ccccc2)CC1	-0.5	-4%	0	0.3	5.9	27	-2
Cn1c(=O)c2c(ncn2CC(=O)OCC(=O)NC(c2ccccc2)c2ccccc2)n(C)c1=O	4.4	-3%	-7	0.3	0.3	-13	-3
COc1cccc(OCC(=O)NNC(=O)Cc2cccs2)c1	-1.1	·	-4	4.1	-4.6	0	0
CC(=O)c1c(C)[nH]c(C(=O)N2CCN(S(=O)(=O)c3ccc(C)cc3C)CC2)c1C	-4.1	?	-2	·	1.3	·	6
Cc1ccc(NC(=O)CC(O)(C(F)(F)F)C(F)(F)F)c(Br)c1	1.0	-1%	-5	2.8	-0.5	-50	4
Cn1c(COc2nnc(-c3ccc(Cl)cc3)c3ccccc23)nc2ccccc21	-5.7	-5%	-7	2.0	-2.4	13	0
COc1ccc(C(=O)Nc2nc(CC(=O)NCCc3ccccc3OC)cs2)cc1	-0.6	-104%	-6	-1.5	-1.2	-3	3
O=C(c1ccc(F)cc1)n1c(NCc2ccccc2)n[nH]c1=S	0.8	·	31	3.3	-2.8	-8	-2
CCOCCCNC(=S)N1CCC(NC(=O)C23CC4CC(CC(C4)C2)C3)CC1	-1.9	2%	·	2.4	1.8	6	2
COCCNC(=O)C(=O)Nc1cc2c3c(c1)CCC(=O)N3CCC2	1.2	·	-27	-0.9	11	-11	-2
COc1cc(C2SCC(=O)N2c2c(C)n(C)n(-c3ccccc3)c2=O)ccc1O (stereo not given)	2.5	·	36	0.0	3.1	1	18
O=C(NCc1ccccc1)C(c1ccc(F)cc1)N(Cc1ccc2c(c1)OCO2)C(=O)Cn1nnc(-c2cccs2)n1 (stereo not given)	1.6	-9%	4	-2.1	-1.4	-10	11
O=C(CSc1ccc2nc(-c3ccccc3)cn2n1)NCC1CCCO1 (stereo not given)	1.1	10%	-2	4.5	-1.0	-1	0
CC(=O)NS(=O)(=O)c1ccc(N=NN2CCOCC2)cc1	1.5	-4%	-1	2.8	3.6	-2	4
Cc1ccccc1-c1nc2c(s1)CCc1onc(-c3cccc([N+](=O)[O-])c3)c1-2	3.0	·	0	0.1	-2.9	12	2
COC(=O)/C=C/COc1ccccc1[N+](=O)[O-]	2.2	4%	34	-3.4	-3.3	4	-195
CC(C)(O)C#Cc1ccc(CN2CCN(Cc3ccsc3)C(CCO)C2)s1 (stereo not given)	0.5	22%	-6	1.3	-1.6	15	1
O=C(COC(=O)CCc1nc2ccccc2c(=O)[nH]1)Nc1c(Cl)cccc1C(F)(F)F	0.5	4%	2	·	-36	4	2
Cc1nc(S(=O)(=O)c2ccc(Cl)cc2Cl)nc2c1CCC2	1.6	9%	-1	2.6	3.2	-7	-11
Cc1ccc(O)c(NC(=O)CSc2ccc(Cl)cc2)c1	0.1	0%	-5	-11	-8.0	46	5
CC1CCN(C(=O)COc2ncnc3ccccc23)CC1	2.7	3%	1	1.6	-0.3	-8	0
Cc1cc(C)c2nc(N(CCN(C)C)C(=O)c3ccc(S(=O)(=O)N(C)CC4CCCO4)cc3)sc2c1 (stereo not given)	1.7	·	-2	1.2	-1.5	2	2
O=C(CCl)N1c2ccccc2OCC1c1ccccc1 (stereo not given)	7.2	?	·	5.1	8.1	-5	11
CCCCC(CC)CNCc1cccn1CCN1CCOCC1 (stereo not given)	1.2	·	·	2.1	-2.0	-9	-3
CC(=O)Oc1ccc(C(=O)NCc2ccco2)cc1	-0.5	·	2	0.1	1.6	-10	1
Cc1ccccc1CNC1CCCCC1	-0.7	-8%	·	?	4.9	-5	1
CCOC(=O)N1CCN(C(=O)c2ccc(N3C(=O)CCC3=O)cc2)CC1	-0.5	-2%	-11	6.4	2.4	-2	-3
COc1ccc(OC)c(S(=O)(=O)Nc2ccc(O)c(Sc3ncn[nH]3)c2)c1	3.4	14%	99*	3.4	-0.4	8	3
CC(C)c1cc(C(=O)O)n(-c2ccccc2)n1	0.9	8%	-1	4.7	0.9	3	-6
CN(c1ccc(OCc2nnc(-c3ccccc3)o2)cc1)S(=O)(=O)c1ccccc1	-1.9	20%	-15	0.0	7.4	16	-2
COCCC1CCCCN1C(=O)c1cccc(OC2CCN(S(C)(=O)=O)CC2)c1 (stereo not given)	3.8	-2%	-11	4.2	17*	35	-3
N#CC12CCCCC1CC1CCCCC1(C#N)N2Cc1cccnc1 (stereo not given)	3.4	17%	-1	?	0.5	-1	-3
COc1cc(/C=N/N=C/c2cc(OC)c(O)c(OC)c2)cc(OC)c1O	7.7	-4%	98*	0.8	-3.9	21	20
O=C(COC(=O)c1ccc(Br)o1)NCc1ccco1	-11	·	-1	0.9	-1.3	-9	-6
COc1cc(OCc2ccccc2)c(C(=O)/C=C/c2ccc3c(c2)OCO3)c(OC)c1OC	-0.9	·	-11	1.5	-2.8	7	15
COc1ccccc1N1CCN(C(=O)CN2C(=O)c3cccc4cccc(c34)C2=O)CC1	-2.5	30%	2	-0.1	2.6	6	12
COc1ccccc1CNC(=O)C1CC(=O)N(C2CCCC2)C1 (stereo not given)	-2.8	1%	1	-2.8	-4.5	7	5

(next part)
SMILES	HNF4A DNA FP	Vif TR-FRET	ALR inh	RanGTP-Impb inh	LANA-H2A inh	Calb FLC	Beta2AR agonist
Cc1ccccc1CNC(=O)c1ccc2nc(N3CCOCC3)sc2c1	1.2	·	-9	1.5	-2.9	15	-2
O=C(CSc1ccc([N+](=O)[O-])cn1)Nc1nccs1	-1.2	·	-6	1.3	4.8	1	1
Cc1cc(NC(=O)CCC(=O)N(c2ccccc2C)C(C(=O)NC2CCCC2)c2ccccc2)no1 (stereo not given)	2.4	0%	·	-4.5	-11	-4	5
CCC(C)(C)n1nnnc1C(c1ccc(C)cc1)N1CCN(Cc2ccc3c(c2)OCO3)CC1 (stereo not given)	3.5	-7%	-14	2.5	7.5	-36	4
Cc1cc(C(=O)NNS(=O)(=O)c2ccccc2C(F)(F)F)nn1C(C)(C)C	2.2	·	14	0.1	1.5	-28	2
CCOC(=O)c1c(C)oc(NC(=O)CCl)c1C(=O)OCC	-3.0	·	42	2.6	5.7	-9	-9
O=C(N/N=C/c1ccc(O)cc1)c1cccc(C(F)(F)F)c1	-2.1	7%	98*	1.3	0.0	27	0
O=C(Nc1cc(S(=O)(=O)N2CCOCC2)ccc1N1CCOCC1)c1ccccc1F	4.0	-9%	3	·	-1.1	·	-1
O=C(C[n+]1cc(Br)cc(Br)c1)c1cccc([N+](=O)[O-])c1	-2.9	·	5	-2.1	-2.9	-21	2
O=C(CCN1CCN(C/C=C/c2ccccc2)CC1)Nc1ccccc1F	0.4	20%	2	-0.2	2.2	-5	-1
COc1cccc(OC)c1C(=O)NC(=S)Nc1ccc(N2CCOCC2)c(Cl)c1	0.9	-1%	-10	0.9	-0.6	-15	-3
Cc1cc([N+](=O)[O-])nn1CC(=O)N1CCCc2ccccc21	1.9	-8%	·	0.6	0.1	0	2
CCc1ccccc1NC(=O)Cn1nnc(-c2cccnc2)n1	5.4	4%	-2	-2.6	-1.0	6	-10
COc1ccc(C(=O)/C=C2/Sc3cc4c(cc3N2C)OCO4)cc1	24	·	·	-2.1	1.2	0	30
CN(C)c1ccc(/C=c2\sc3nc(-c4ccccc4)nn3c2=O)cc1	·	-8%	·	-3.0	·	-2	·
